# KCNQ2 pot – potentiators of rat KCNQ2 potassium channel; CHO-K1 KCNQ2, FluxOR thallium flux fluorescence; active compounds read high; Potassium voltage-gated channel subfamily KQT member 2 (Rattus norvegicus), O88943; B-score at 10 µM; hit rate 0.54% among 310,000;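 active = fluorescence ratio B-score at least 3 SD of library B-scores, with initial fluorescence B-score within 3 SD, cut at about 5.3 in these data; same plate scores as AID 2156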;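 note: B-score of peak minus minimum over baseline fluorescence ratio after K+ and Tl+ stimulus; positive B-score means potentiation of KCNQ2 with more thallium influx and brighter signal; only the inactives scoring about 0 or higher are listed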
# Target sequence (O88943 whole entry, looked up): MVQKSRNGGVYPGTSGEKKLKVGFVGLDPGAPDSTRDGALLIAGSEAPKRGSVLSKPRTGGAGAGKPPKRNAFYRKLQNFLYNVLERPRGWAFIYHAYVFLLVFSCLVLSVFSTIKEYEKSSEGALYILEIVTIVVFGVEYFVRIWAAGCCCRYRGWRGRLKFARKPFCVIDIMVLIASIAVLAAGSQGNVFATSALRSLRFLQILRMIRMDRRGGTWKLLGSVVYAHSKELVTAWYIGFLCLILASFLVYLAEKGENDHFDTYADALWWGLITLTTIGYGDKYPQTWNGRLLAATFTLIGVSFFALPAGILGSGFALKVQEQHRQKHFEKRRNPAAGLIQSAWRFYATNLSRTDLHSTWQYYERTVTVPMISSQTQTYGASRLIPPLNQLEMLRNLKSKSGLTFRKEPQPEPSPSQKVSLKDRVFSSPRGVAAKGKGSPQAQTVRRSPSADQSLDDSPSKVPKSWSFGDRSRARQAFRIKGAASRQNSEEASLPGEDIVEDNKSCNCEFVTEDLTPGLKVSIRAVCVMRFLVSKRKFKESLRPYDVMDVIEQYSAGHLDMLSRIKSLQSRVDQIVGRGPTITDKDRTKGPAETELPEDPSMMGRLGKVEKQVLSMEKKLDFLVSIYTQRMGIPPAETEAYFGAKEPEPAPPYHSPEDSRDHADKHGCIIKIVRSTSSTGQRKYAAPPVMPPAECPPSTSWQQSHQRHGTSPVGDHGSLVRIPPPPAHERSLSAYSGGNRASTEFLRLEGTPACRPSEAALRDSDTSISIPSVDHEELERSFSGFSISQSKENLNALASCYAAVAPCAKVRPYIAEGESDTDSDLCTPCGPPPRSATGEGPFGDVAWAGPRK
# KCNQ2 pot baseline – second read-out of KCNQ2 pot, no call of its own (marks repeat the call); B-score; compound at 10 µM; measured here: initial fluorescence intensity artifact check;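 brightness before thallium and not channel activity; 0 = typical well and far values either way flag optical interference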
# The depositor's hits bear a star. An excerpt (hit frequency here may not be typical).
SMILES,KCNQ2 pot,KCNQ2 pot baseline
C[C@@H]1CC[C@@]2(OC1)O[C@H]1C[C@H]3[C@@H]4CC=C5C[C@@H](O)[C@H](O)C[C@]5(C)C4CC[C@]3(C)[C@H]1[C@@H]2C (stereo not given in full),0.75,0.11
O=C(CSc1nc2ccccc2c(=O)n1NC(=O)Cc1ccccc1)NCc1ccco1,0.01,0.24
Cc1nc2ccccc2c(=O)n1NC(=O)c1cccc(Cl)c1,0.35,-0.01
C/C(=N\NC(=O)c1cccc(S(=O)(=O)N2CCOCC2)c1)c1ccc(C#N)cc1,0.05,2.2
CCOCCc1nnc(NC(=O)c2cccc(F)c2)s1,0.35,0.31
Cc1cc(Nc2cccc(F)c2)n2nc(C)nc2n1,0.41,1.1
Cc1cc(=O)n2nc(N3CCC(C(=O)NCc4ccc(F)cc4)CC3)sc2n1,0.69,0.27
CC(C)OP(=O)(OC(C)C)C(O)c1cccc([N+](=O)[O-])c1 (stereo not given),0.17,-0.68
COc1ccc(-c2c(C3=CCCCC3)oc3ccc(-c4ccc5c(c4)OCO5)cc23)cn1,0.45,0.01
COc1cccc(N2C(=NC(=O)C3CCCO3)SC3CS(=O)(=O)CC32)c1 (stereo not given),0.61,-2.6
Cc1ccc(C(=O)OCC(=O)N2CC(=O)Nc3ccccc32)s1,0.85,-1.2
CN(C)S(=O)(=O)c1ccc(C(=O)NCC(=O)N/N=C/c2ccccc2)cc1,2.3,0.95
Cc1ccc(S(=O)(=O)CCC(=O)N(C)C2CCCCC2)cc1,0.53,-0.41
COC(=O)c1ccc2c(=O)n(C3CCCCC3)c(SCC#N)nc2c1,0.42,-0.22
COC(=O)c1ccc(N2CCN(C)CC2)c(NC(=O)c2ccc(-c3ccc(Cl)cc3)o2)c1,1.7,0.03
O=S(=O)(Nc1ccc(N2CCOCC2)cc1)c1ccc(Cl)s1,1.3,-0.33
COc1ccc(-c2c(C#N)c(SCC(=O)c3cc4ccccc4oc3=O)nc(C)c2C(=O)Nc2ccccc2)cc1,1.4,0.44
CCCCNC(=O)CN(CCc1ccccc1)S(C)(=O)=O,1.5,-1.6
CCCN(CCC)CCCNC(=O)c1ccc2c(c1)N(CC)C(=O)c1ccccc1S2=O (stereo not given),0.58,-0.3
Cc1ccc(C(=O)ON=C2CCN(S(=O)(=O)c3ccccc3)CC2)cc1,0.9,1.1
O=C(CN1CCN(Cc2ccccc2)CC1)Nc1ccc(Br)cc1,0.74,-1.4
Cn1cc(Br)c(C(=O)N2CCCCCC2)n1,1,1.5
COc1ccc(N(C)C(=O)C2CCN(S(=O)(=O)c3cccc4nonc34)CC2)c(OC)c1,1.1,-1.5
Nc1ccc(C(=O)NC2CCSc3ccccc32)cc1[N+](=O)[O-] (stereo not given),1.3,-0.4
CCCCNC(=S)N(CCN(CC)CC)Cc1cc2cc3c(cc2[nH]c1=O)OCO3,0.13,-1.6

# Quoted at random: 7 compounds from above
SMILES,KCNQ2 pot,KCNQ2 pot baseline
Cc1cc(=O)n2nc(N3CCC(C(=O)NCc4ccc(F)cc4)CC3)sc2n1,0.69,0.27
Cn1cc(Br)c(C(=O)N2CCCCCC2)n1,1,1.5
COc1ccc(-c2c(C#N)c(SCC(=O)c3cc4ccccc4oc3=O)nc(C)c2C(=O)Nc2ccccc2)cc1,1.4,0.44
Cc1cc(Nc2cccc(F)c2)n2nc(C)nc2n1,0.41,1.1
Cc1ccc(C(=O)OCC(=O)N2CC(=O)Nc3ccccc32)s1,0.85,-1.2
O=S(=O)(Nc1ccc(N2CCOCC2)cc1)c1ccc(Cl)s1,1.3,-0.33
C/C(=N\NC(=O)c1cccc(S(=O)(=O)N2CCOCC2)c1)c1ccc(C#N)cc1,0.05,2.2

# Following part.
SMILES,KCNQ2 pot,KCNQ2 pot baseline
COCCNC(=O)c1cc(S(=O)(=O)N2CCCCC2)ccc1N1CCOCC1,1,0.76
OC1(c2ccc(F)cc2)CCN(Cc2nnnn2Cc2cccs2)CC1,1.1,-1.7
COc1ccc(Sc2nc(-c3ccccn3)ncc2OC)cc1,0.09,-0.76
CC(C)Oc1ncnc2c1[nH]c1ccccc12,3.5,1
CC(=O)NCCn1c(SCC(=O)NCCC(C)C)nc2ccccc2c1=O,0.34,2
Cc1ccc(C)c(CSc2nnc(-c3ccccn3)n2N)c1,0.13,0.22
CC1CC(Nc2ccccc2)c2ccccc2N1C(=O)c1cccnc1 (stereo not given),0.51,0.29
CCOC1CCCCC1NS(=O)(=O)c1ccc(Cl)cc1 (stereo not given),0.19,0.41
O=C(O)c1ccccc1N(Cc1ccccc1)C(=O)CO/N=C/c1ccccc1,1.2,-0.41
N#C/C(=N\Nc1ccc(Br)cc1)C(=N)N1CCOCC1,0.16,-0.08
Cn1c(SCC(=O)Nc2cccc(S(=O)(=O)NC3=NCCCCC3)c2)nnc1-c1ccccc1,0.06,-1.7
Cc1cccc(NC(=O)Cn2c(=O)oc3cc(S(=O)(=O)N4CCCC4)ccc32)n1,0.02,-1.3
O=C(CNC(=O)c1ccc(Br)cc1)NCC(=O)OCc1ccc(Cl)cc1,0.03,-1.2
O=C(O)c1ccc(CSc2nnc(SCc3ccccc3)s2)cc1,0.33,1.4
O=C(Nc1nnc(C2=COCCO2)o1)c1ccc([N+](=O)[O-])cc1,1.8,-0.44
Cc1ccc(NC(=O)Cc2ncc(C(F)(F)F)cc2Cl)cc1Cl,0.31,2.2
Cc1ccc(NC(=O)CN(C)C(=O)CSc2ncc(C(F)(F)F)cc2Cl)cc1,0.19,0.05
O=C(CNC(=O)OCc1ccccc1)NC1CCCCCCC1,0.95,-0.09
COC(=O)c1ccccc1NC(=O)c1cnn2cccnc12,0.47,0.13
CCOC(=O)/C=C1\SCC(=O)N1CC(=O)NC12CC3CC(CC(C3)C1)C2,3.5,-0.35
O=C(O)c1cc(OCc2ccccc2)cc(OCc2ccccc2)c1,1.2,0.35
COc1ccc(C(=O)CNc2ccccc2C#N)cc1,1.2,0.22
COC(=O)C1=C(C)N(Cc2ccco2)C(=O)N[C@@H]1c1ccccc1,0.44,-0.19
CNC[C@@H](C)NC[C@@H](Cc1ccccc1)NCCc1ccccc1,1,0.16
Cc1cnc(NC(=O)CCNC(=O)c2ccc([N+](=O)[O-])cc2)s1,1.1,0.1
# Continuation:
SMILES,KCNQ2 pot,KCNQ2 pot baseline
COc1ccc(C(CNC(=O)c2cc3ccccc3o2)N2CCCCC2)cc1 (stereo not given),0.14,0.08
COC(=O)N/N=C/c1cn(CCOc2ccccc2OC)c2ccccc12,2,-0.21
O=C(Cc1ccc(Cl)cc1)Nc1ccc(S(=O)(=O)Nc2cnc3ccccc3n2)cc1,0.09,1.5
COc1cc(C(=O)NCc2nnc(SCC(=O)NCc3ccccc3)o2)cc(OC)c1OC,0.84,-1.5
CSc1nnc(-c2ccc(NC(N)=S)cc2)o1,0.06,-0.23
O=C(CN(c1ccccc1)S(=O)(=O)c1ccccc1)N/N=C/c1ccc(OC2CSC2)cc1,1.9,-0.89
COc1ccc(/C=N\N=C2/SC(CC(=O)O)C(=O)N2c2ccc(O)cc2)cc1 (stereo not given),0.82,0.29
CSc1cc(-c2ccccc2)n(C)c(=O)c1C#N,1.6,-0.99
COc1ccc(C(=O)COC(=O)Cn2cnc3c2c(=O)n(C)c(=O)n3C)c(OC)c1,1.6,-1
COCc1ccc(C(=O)Nc2ccccc2C(=O)NCc2cccnc2)cc1,0.01,0.05
O=C(NCc1cnc2ccccn12)C1CCC(=O)N(Cc2cccc(F)c2)C1 (stereo not given),0.1,-0.43
Cc1onc(-c2ccccc2)c1-c1nc2ccccc2c(=O)o1,0.02,-0.73
COc1cccc(CC2(CO)CCN(S(=O)(=O)c3ccc(OC)cc3OC)CC2)c1,0.79,-0.01
Cc1ccc2c(CN3CCN(CCO)CC3)cc(=O)oc2c1C,0.44,0.49
CCSc1ccc(/C(N)=N/OC(=O)c2cccs2)cn1,0.47,-0.35
COC(=O)c1cc(C)sc1NC(=O)c1cccnc1,0.18,0.5
CCCCn1c(-c2cc(Cl)ccc2OC)n[nH]c1=S,0.83,0.19
N#C/C(=C(/O)COC(=O)Cc1c[nH]c2ccccc12)c1nc2ccccc2[nH]1,0.1,0.28
O=C(NCC1CCCO1)/C(=C\c1ccco1)NC(=O)c1ccccc1 (stereo not given),0.05,0.75
COCCC1CCCCN1C(=O)c1ccc2nc(Cc3ccccc3F)oc2c1 (stereo not given),0.54,-3.4
Cc1nn(CC(=O)OCCOc2ccc(Br)cc2)c(C)c1[N+](=O)[O-],1.2,-1.3
CC(C)NC(=O)NC(=O)COc1ncnc2sccc12,1.1,-1.1
O=C(Cc1c(F)cccc1Cl)Nc1nc2ccccc2s1,5,-0.16
Fc1ccc2nc(N3CCCCC3)sc2c1,0.15,0.13
CCCCC(=O)Nc1ccc(N2CCCC2)cc1,1.1,-0.12
# Continuation.
SMILES,KCNQ2 pot,KCNQ2 pot baseline
Cc1nc(NS(=O)(=O)c2ccc(Cl)s2)c2c3c(sc2n1)CCCC3,1.2,-1.1
CCCCCCCC[n+]1cccc(C(=O)N(CC)CC)c1,0.65,1.6
Cc1cc(C(=O)Nc2cccc(O)c2)c(C)o1,0.15,-0.37
COc1ccc(C)cc1N(C(=O)CNC(=O)c1ccco1)C(C(=O)NC1CCCC1)c1cccnc1 (stereo not given),1.5,-0.06
COc1cc(CNn2cnnc2)ccc1OCC(=O)NC(C)(C)C,0.15,-0.29
Cc1ccc(S(=O)(=O)NCCC(=O)N2CCC(Cc3ccccc3)CC2)cc1,5.3*,0.19*
CCOC(=O)c1ccccc1NC(=O)c1cccc(F)c1,0.03,-0.45
O=C1C2=C(CCCC2)C(=O)N1c1cccc(OCCBr)c1,7.8*,0.91*
CC(Sc1nc(N(C)C)nc(N2CCOCC2)n1)C(=O)Nc1ccccc1 (stereo not given),2.2,-0.14
CCc1noc(C)c1C(=O)Nc1ccccc1N1CCOCC1,0.58,-0.17
Cc1cc(CNC(=O)c2ccc3c(c2)OCO3)c2ccccc2n1,0.02,1.2
CC(C(=O)Nc1nc2ccccc2[nH]1)N1C(=O)C2CC=CCC2C1=O (stereo not given),0.12,0.07
COc1ccccc1N(CC(=O)Nc1ccccc1C(=O)N1CCCC1)S(C)(=O)=O,0.04,-0.6
Cc1c(Cl)c([N+](=O)[O-])nn1CCCC(=O)Nc1cc(Cl)ccc1Cl,1,-0.28
Cc1ccn2c(=O)nc(SCC(=O)NC3CCCCC3)nc2c1,0.61,0.86
COC(=O)c1nc(N)sc1C,0.11,-1
COc1cc2c(cc1OC)C(COc1ccc([N+](=O)[O-])cc1)NCC2 (stereo not given),0.91,0.38
Cc1ccc(S(=O)(=O)N/N=C/c2cnn(C)c2C)cc1,0.6,2.2
COc1ccc(CCNC(=O)c2nn(C)cc2Cl)cc1,0.33,0.7
O=C(CSc1nnc(-c2cccnc2)n1Cc1ccco1)c1ccc(Cl)cc1,0.72,0.42
CCOC(=O)NC(=O)/C(C#N)=N/Nc1c(F)cccc1F,1.4,-0.01
CCCCCCc1ccc(OCC(=O)O)cc1OCC(=O)O,0.39,-0.36
COc1ccc(S(=O)(=O)N(C)CC(=O)Nc2ccc3c(c2)OCO3)cc1OC,1.5,0.04
CC(C)(C)C(=O)NNC(=O)c1cc2sccc2s1,0.2,3.2
COc1ccc(C(=O)Nc2cc([N+](=O)[O-])ccc2N2CCN(C)CC2)cc1,0.23,0.55
# Continued:
SMILES,KCNQ2 pot,KCNQ2 pot baseline
O=C(NNC(=O)c1ccc(NC(=O)c2ccccc2)cc1)c1ccccc1,0.13,1.3
O=S(=O)(Nc1nccs1)c1cnc(Cl)c(Br)c1,0.23,0.01
COc1cc(/C=N/NC(=O)C23CC4CC(CC(C4)C2)C3)cc(Br)c1O,0.39,-1.7
O=S(=O)(Nc1ccc(N2CCCCC2)cc1)c1ccc(F)cc1F,1.8,0.01
Cc1nc(N2CCOCC2)nc2c1CCC2,0.99,-0.03
Cc1cnc(C(=O)Nc2ccc(N3CCOCC3)cc2)cn1,0.16,1.3
Cc1cc(NC(=O)COc2cccc([N+](=O)[O-])c2)no1,1.2,3.2
O=C(CSc1nnc2n1CCCN2)c1ccccc1,0.69,1
O=C(c1ccco1)N1CCN(C(=O)C(Sc2ccccc2)c2ccccc2)CC1 (stereo not given),0.51,-2.1
CCCNC(=O)COc1ccc(-c2nn(C)c(=O)c3ccccc23)cc1,0.81,-1.2
CC(C)CC(=O)Nc1cccc2c1C(=O)N(c1ccccc1)C2=O,0.28,0
COc1ccc(C)cc1S(=O)(=O)N(C)CC(=O)Nc1ccccc1,1,-0.28
CC(=O)CC(C)(C)Nc1nc2cc([N+](=O)[O-])ccc2o1,0.05,0.9
COc1ccc([C@@H]2[C@H]3CN(C(C)=O)CC=C3C(C#N)=C(N)C2(C#N)C#N)c2ccccc12,0.34,1.6
CCOc1ccc(C(=O)NN2C(=S)NC(C)(C)C=C2C)cc1,1.4,-1
Cn1c(Cn2cnc3ccccc32)nnc1SCc1ccccc1,1.6,-0.74
O=C(O)CSCc1nc2ccccc2s1,0.27,-0.01
Cc1nn(CC(=O)NCCc2ccccc2)c(=O)c2cccn12,0.02,-0.85
Cc1nnc(Sc2c(N)n(C)c(=O)n(C)c2=O)s1,0.03,-0.28
CC(C)(C)c1ccc(C(=O)NCC(=O)OCC(=O)c2ccc3c(c2)-c2ccccc2C3)cc1,1.2,0
CCN(Cc1ccncc1)Cc1cn[nH]c1-c1ccc(OC)cc1F,0.77,0.43
O=c1c2ccccc2sn1-c1ccc(S(=O)(=O)N2CCCCC2)cc1,0.96,1.2
CCOc1ccc(CNc2ncnc(N)n2)cc1,0.09,2.6
O=C(OCC(=O)N1CCN(C(=O)c2ccco2)CC1)c1sc2cc(F)ccc2c1Cl,0.27,-0.05

# As a short view, 3 of the compounds above.
SMILES,KCNQ2 pot,KCNQ2 pot baseline
O=C(NNC(=O)c1ccc(NC(=O)c2ccccc2)cc1)c1ccccc1,0.13,1.3
O=S(=O)(Nc1nccs1)c1cnc(Cl)c(Br)c1,0.23,0.01
COc1cc(/C=N/NC(=O)C23CC4CC(CC(C4)C2)C3)cc(Br)c1O,0.39,-1.7

# Screening results: PubChem, Johns Hopkins Ion Channel Center
